Screens deposited in PubChem by National Center for Advancing Translational Sciences (NCATS).
D2 potentiator – human D2 receptor positive allosteric modulation; P14416; DiscoveRx D2 beta-arrestin cells, luminescence, 90 min; 100% = 57 uM dopamine signal; potentiation, % (no concentration beside the values); 0.23% of 360,000 active; AID 624464; active = potentiation of 50% or more; inconclusive = 30% to 50%; inactive = 30% or less;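 also: compound concentration not given in the record; tested on top of an EC20 dose of dopamine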
Target sequence (P14416 whole entry, looked up): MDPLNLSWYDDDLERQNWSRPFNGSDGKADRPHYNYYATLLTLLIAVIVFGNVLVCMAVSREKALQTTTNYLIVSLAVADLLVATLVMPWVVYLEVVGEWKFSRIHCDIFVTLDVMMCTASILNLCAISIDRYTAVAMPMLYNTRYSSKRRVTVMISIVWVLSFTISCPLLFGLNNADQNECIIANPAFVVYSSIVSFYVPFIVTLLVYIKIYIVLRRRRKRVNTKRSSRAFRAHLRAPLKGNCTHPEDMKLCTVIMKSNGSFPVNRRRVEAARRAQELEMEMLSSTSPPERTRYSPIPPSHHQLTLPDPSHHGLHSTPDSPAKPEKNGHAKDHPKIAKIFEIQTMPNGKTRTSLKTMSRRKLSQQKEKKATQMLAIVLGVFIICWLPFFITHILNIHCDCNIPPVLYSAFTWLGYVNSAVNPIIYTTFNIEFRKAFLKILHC
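PathHunter D2 cells, attached overnight at 37 deg C, received compound in DMSO plus dopamine at EC20 (50 nM final) for 90 min at 37 deg C. Beta-arrestin recruitment was read as luminescence after 1 h with detection reagent at ambient temperature.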
TRPML1 agonist – activates the human TRPML1 channel; TRPML1-expressing cells, Ca2+ dye fluorescence, FDSS; host cell line not named in the record; reference of the full effect not given here; 0.12% of 410,000 active; Q9GZU1; activation, % (concentration not given with the values); in the data active = activation above about 50%; inconclusive = about 30% to 50%; inactive = below about 30%; also: 0% is about no effect; the text of the record puts the active cut at 80%
Target sequence (Q9GZU1 whole entry, looked up): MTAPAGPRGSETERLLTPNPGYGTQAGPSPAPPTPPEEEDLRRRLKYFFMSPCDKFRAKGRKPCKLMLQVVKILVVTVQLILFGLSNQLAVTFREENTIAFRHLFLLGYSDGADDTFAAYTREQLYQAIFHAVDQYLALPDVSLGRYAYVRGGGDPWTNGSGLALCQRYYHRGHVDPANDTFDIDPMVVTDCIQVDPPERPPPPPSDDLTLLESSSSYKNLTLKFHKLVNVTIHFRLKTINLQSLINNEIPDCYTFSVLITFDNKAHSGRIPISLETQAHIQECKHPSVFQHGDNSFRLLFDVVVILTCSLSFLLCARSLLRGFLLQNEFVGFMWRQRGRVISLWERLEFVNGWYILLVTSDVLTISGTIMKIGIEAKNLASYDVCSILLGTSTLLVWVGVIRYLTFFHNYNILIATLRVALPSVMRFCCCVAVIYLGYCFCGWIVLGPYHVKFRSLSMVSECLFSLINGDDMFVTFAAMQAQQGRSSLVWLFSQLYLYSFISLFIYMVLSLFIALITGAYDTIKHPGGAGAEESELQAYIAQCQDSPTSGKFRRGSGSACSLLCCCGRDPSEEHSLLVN
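Agonist activity was taken from a 110 s kinetic Ca2+ dye read on the FDSS after pinning compounds onto TRPML1-DL cells. The cells were seeded at 1,500/well with Tet inducer, incubated about 16 h, then dye-loaded at room temperature.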
D2 agonist – human D2 receptor agonism in beta-arrestin assay. DiscoveRx PathHunter D2 beta-arrestin, luminescence, 90 min; 100% = 57 uM dopamine signal. activation, % (no concentration beside the values). 0.084% of 360,000 active. AID 624465; in the data active = activation above about 40%; inconclusive = about 15% to 40%; inactive = below about 15%; also: compound concentration not given in the record; the text of the record calls up to 30% inactive
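DiscoveRx PathHunter D2 beta-arrestin cells (2,100/well) attached overnight, then compound-stimulated 90 min at 37 C in HBSS/10 mM HEPES/0.1% Tween-20 buffer; beta-galactosidase complementation read by luminescence after 1 h at ambient temperature. Dopamine 57 uM final (EC100) as control.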
Six1-Eya2 blk – blocks human Six1 binding to Eya2; AlphaScreen GST-Six1/His-Eya2 binding, biochemical; stronger effect = lower value; control for the full effect not named in the record; 0.56% of 360,000 active; Q15475+O00167; activity change, % (concentration not given with the values); AID 651725; in the data active = activity change below about -65%; inconclusive = about -30% to -65%; inactive = above about -30%; also: % is scaled to controls: 0 for no effect and ±100 for the full control effect
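AlphaScreen luminescence read after one hour at 37 °C in darkness. Pin-transferred compounds met GST-Six1 and His-Eya2 protein (5X stock 250 nM/500 nM) plus glutathione donor and Ni-chelate acceptor beads (5X, 50 ug/mL).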
PINK1 expr mod – changes PINK1 expression; Potency, µM (series often up to 76.6 µM), for the others: at the top dose activation (PINK1 increase), hits mostly activators; PINK1 immunofluorescence, high-content cytometry, 24 h; AID 624263; 0.2% of 410,000 active; active = well fitted activation curve with a large enough effect; inconclusive = small, poorly fitted or top-dose-only effect; inactive = flat fitted curve, though single readings scatter; cell line not stated here;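 also: potency is read from the fitted curve at half-maximal effect; % of control where 0% means no effect; nearly all actives have a fitted effect of over 65% in size; a mitochondrial uncoupler was the plate control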
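Readout is PINK1 immunofluorescence, quantified alongside mitochondrial, cell and nuclear markers by laser-scanning microplate cytometry. Cells from a stable line were exposed to compound titrations (5 concentrations) for 24 hours, with CCCP controls.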
TRPML1 inh – blocks the human TRPML1 channel. Q9GZU1. TRPML1-inducible cells, Ca2+ dye fluorescence, FDSS; stronger effect = lower value; inhibition of EC80 agonist-evoked calcium signal. activity change, negative = inhibition, % (test concentration not listed). 0.02% of 390,000 active. AID 624415; in the data active means activity change below about -50%; inconclusive means about -30% to -50%; inactive means above about -30%;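 also: stimulus is agonist 54-4 at its EC80 concentration; % is scaled to controls: 0 for no effect and ±100 for the full control effect; compound concentration not given in the record; the text of the record puts the active cut at -80%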
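TRPML1-DL cells, Tet-induced overnight (~16 h, 37 °C) at 1,500 cells/well, were loaded with Ca8 no-wash dye plus quencher for 45-90 min at room temperature. Compounds were pinned during FDSS kinetic reading; agonist 54-4 at EC80 (4 uM final) then added.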
The depositor's hits bear a star; ? = inconclusive; nt = no result given; & = joins results of further samples; [ ] = another dose, or the depositor's remark. Not a hit list. Share with any hit: about 1%.

Results follow in this order: D2 potentiator	TRPML1 agonist	D2 agonist	Six1-Eya2 blk	PINK1 expr mod	TRPML1 inh
(1) CC(C)N(Cc1ccccc1)C(=O)C1CCN(c2ncnc3c2nc2n3CCCCC2)CC1
→ 2	1.2	0.1	-4	1.8%	?
(2) C=CC[C@@H](CC(=O)N(CCO)Cc1ccccc1)C(=O)NCCOC(=O)[C@@H](CC=C)Cc1ccc(F)cc1
→ nt	0.3	1.5	4	-0.5%	-5
(3) Cc1ccc(N2C(=O)Nc3ccc(Br)cc3C2(O)C(=O)NCCCN(C)C)cc1C (configuration not stated)
→ -8	-0.5	-1.9	0	-1.9%	10
(4) CSc1ccccc1NC(=O)COc1ccc(Cl)cc1Cl
→ 14	4.5	-2.6	58	5.4%	50
(5) Cc1ccc2nc(NC(=O)c3ccc(Cl)s3)sc2c1
→ -9	0.6	-3.3	8	6.6%	-7
(6) CCC(C)OC(=O)C1=C(C)NC(=O)NC1c1ccc(F)cc1 (configuration not stated)
→ 15	0.1	-1.6	3	nt	-13
(7) N#C/C(C(=O)c1ccccc1)=C1/CCCCCN1
→ -20	2.0	-0.3	3	-0.9%	-14
(8) COc1cc(OC)cc(C(=O)Nc2ccc(S(=O)(=O)Nc3ncccn3)cc2)c1
→ -41	1.2&0.0	-1.7	1	-0.4%&3.4%	23&-3
(9) CN(C)CCNC(=O)C(c1ccccc1)c1ccccc1
→ -23	-0.7	-4.4	4	1.0%	9
(10) COc1cccc(OC)c1/C=C/C(=O)NC1CCCCC1
→ -56	0.3	-0.6	-2	0.8%	1

(listing goes on)
Results follow in this order: D2 potentiator	TRPML1 agonist	D2 agonist	Six1-Eya2 blk	PINK1 expr mod	TRPML1 inh
(11) NS(=O)(=O)c1ccc(NC(=O)c2cc(Cl)ccc2Cl)cc1
→ -1	3.2	-2.3	-13	-1.7%	-13
(12) Cc1nn(-c2ccccc2)c(C)c1C(=O)NCc1ccc(S(N)(=O)=O)cc1
→ -4	-0.3	-4.2	2	0.7%	5
(13) CC(C)C[C@H]1CNC(=S)N1C[C@H]1CCCN1C[C@H](Cc1ccccc1)N1C[C@H](Cc2ccc(O)cc2)N(CCc2ccccc2)C1=S
→ -14	-0.3	-4.9	-12	2.9%	-6
(14) COc1ccc(N(C(=O)c2cccc(OC)c2OC)C2C=CS(=O)(=O)C2)c(OC)c1 (configuration not stated)
→ -13	0.3	-3.5	2	2.7%[38.3 µM]	-11
(15) O=C(c1ccccc1)c1ccsc1C(=O)c1ccccc1
→ -12	3.8	1.5	6	2.3%	-5
(16) CSc1nsc(SCC(=O)Nc2ccc(Cl)c(C(=O)O)c2)n1
→ -4	0.8	-5.1	-4	1.6%	-9
(17) CCc1nnc(NC(=O)CSc2nc3c(cc2C#N)CCCC3)s1
→ -4	-0.6	-2.6	1	0.3%	0
(18) CC(Sc1nnc(C2CC2)n1-c1ccccc1)C(=O)N1CCCC1 (configuration not stated)
→ -3	-0.9	-3.3	-4	-0.1%	3
(19) COc1ccc(-n2c(Cn3nnc4ccccc43)nnc2SCC(=O)O)cc1
→ 2	1.9	-2.9	7	-0.8%	5
(20) CC(C)CC(=O)Nc1ccc(S(=O)(=O)N2CCCC2)cc1
→ -5	0.0	-5.3	6	-0.6%	-11

Going on with the list.
Results follow in this order: D2 potentiator	TRPML1 agonist	D2 agonist	Six1-Eya2 blk	PINK1 expr mod	TRPML1 inh
(21) Cc1[nH]nc(SCC(=O)NCc2ccc(F)cc2)c1[N+](=O)[O-]
→ -6	-1.8	-1.1	1	0.4%	1
(22) Cc1nn(-c2ccc(Cl)c(Cl)c2)c(C)c1C(=O)O
→ -1	0.2	0.4	-1	1.7%	16
(23) CCCc1nc(S(=O)(=O)Cc2ccc(Cl)cc2Cl)n[nH]1
→ -7	-0.4	-2.0	-1	-1.1%[38.3 µM]	-11
(24) CCOc1cc(NC(=S)NCCCN2CCOCC2)c(OCC)cc1NC(=O)c1cccc(C)c1
→ 1	-0.2	-0.3	1	0.2%	-1
(25) Nc1sc(-c2ccccc2)cc1-c1n[nH]c(=S)n1C1CCCCC1
→ -12	0.6	6.6	-12	4.0%	-4
(26) O=C(NCc1ccc2c(c1)OCO2)c1n[nH]c(=O)c2ccccc12
→ -19	0.4	-4.6	-2	4.5%	-12
(27) O=C(O)c1cn(-c2ccc(F)cc2)c2cc(Cl)c(F)cc2c1=O
→ -9	-0.3	4.6	2	0.4%	-10
(28) Cc1c(NS(=O)(=O)c2cccc(C(=O)NCc3ccco3)c2)c(=O)n(-c2ccccc2)n1C
→ -9	0.3	-5.2	-26	0.8%	-7
(29) CCOc1ccc(CCN2C(=O)C(=O)N([C@@H](CC(C)C)CN3CCC[C@H]3CN3C(=O)C(=O)NC[C@@H]3Cc3ccccc3)C[C@@H]2Cc2ccc(O)cc2)cc1
→ nt	0.0	nt	1	1.3%	nt
(30) CCCCn1c(SCc2c(C)noc2C)nc2cc(S(N)(=O)=O)ccc21
→ -8	2.0	-1.0	-4	13%	23

Compound profiles (already shown). Screens in order: D2 potentiator, TRPML1 agonist, D2 agonist, Six1-Eya2 blk, PINK1 expr mod, TRPML1 inh
CCCCn1c(SCc2c(C)noc2C)nc2cc(S(N)(=O)=O)ccc21 in the list: -8, 2.0, -1.0, -4, 13%, 23
Cc1[nH]nc(SCC(=O)NCc2ccc(F)cc2)c1[N+](=O)[O-] in the list: -6, -1.8, -1.1, 1, 0.4%, 1
O=C(NCc1ccc2c(c1)OCO2)c1n[nH]c(=O)c2ccccc12 in the list: -19, 0.4, -4.6, -2, 4.5%, -12
CCCc1nc(S(=O)(=O)Cc2ccc(Cl)cc2Cl)n[nH]1 in the list: -7, -0.4, -2.0, -1, -1.1%[38.3 µM], -11
Nc1sc(-c2ccccc2)cc1-c1n[nH]c(=S)n1C1CCCCC1 in the list: -12, 0.6, 6.6, -12, 4.0%, -4

Later entries:
Results follow in this order: D2 potentiator	TRPML1 agonist	D2 agonist	Six1-Eya2 blk	PINK1 expr mod	TRPML1 inh
(31) Cc1cc(-c2ccc(C)c(S(=O)(=O)NCCc3ccco3)c2)on1
→ -9	1.1	0.1	-15	1.8%	21
(32) CC(=O)NC1(c2nnnn2CCOC(=O)Nc2ccc(Cl)cc2)CCCCC1
→ -5	-0.1	0.0	-5	0.4%	-15
(33) O=C(NCc1cccs1)[C@@H]1CSC2c3ccccc3C(=O)N21 (some centres not stated)
→ -9	-0.6	-6.8	0	1.3%	10
(34) CC1CC(C)CN(S(=O)(=O)N2CCCC(C(=O)NCCCN3CCCCC3C)C2)C1 (configuration not stated)
→ -6	0.1	-2.7	1	0.4%	6
(35) Cc1cc(C(=O)NCc2ccco2)c2cc(F)ccc2n1
→ 0	-0.6	0.5	1	1.9%	15
(36) COc1ccc(CC(=O)NNC(=O)CSc2ccc(C)cc2)cc1
→ 0	-0.2	-1.5	-14	5.7%	11
(37) CC(C)c1nc(SCC(=O)Nc2ccc3c(c2)OCCO3)n[nH]1
→ -7	0.2	2.0	3	2.3%	-6
(38) Cc1sc2ncnc(N3CCCCC3C)c2c1C (configuration not stated)
→ 0	0.2	-2.4	3	-0.5%	-9
(39) CCOC(=O)N1CCN(C(=O)c2cnn(-c3ccccc3)c2NC(=O)c2ccccc2F)CC1
→ 5	-0.6	0.5	0	-2.0%[38.3 µM]	10
(40) Cn1c(=O)c2c(c3ccccc31)OC(=O)CC2c1cccnc1 (configuration not stated)
→ -6	-0.4	0.3	19	-0.8%	6

Next section.
Results follow in this order: D2 potentiator	TRPML1 agonist	D2 agonist	Six1-Eya2 blk	PINK1 expr mod	TRPML1 inh
(41) Cc1ccc(NC(=O)C(=O)NCc2ccc(Cl)cc2)cc1
→ nt	1.2	nt	nt	2.7%	5
(42) O=C(Nc1cccnc1)C1CC(c2ccccc2O)=NO1 (configuration not stated)
→ -16	-0.5	0.8	-6	nt	10
(43) Cc1ccc(C(=O)OC(C)C(=O)Nc2ccc3c(c2)OCO3)c(O)c1 (configuration not stated)
→ -1	-0.6	-2.5	-4	9.9%	5
(44) CSc1ccc(CN2CCN(CC=C(C)C)C(CCO)C2)cc1 (configuration not stated)
→ -12	-0.3	-4.0	2	-0.5%	3
(45) COc1ccc(NC(=O)c2nn(C)c3c2CSc2ccc(C)cc2-3)cc1OC
→ nt	-0.5	nt	nt	-0.8%	14
(46) S=C(NC1CC1)N1CCc2ccccc2C1
→ -12	0.5	0.6	3	-2.5%	-5
(47) O=C(O)CC(=O)Nc1ccccc1C(=O)O
→ -1	-0.8	-1.1	3	-2.0%	-11
(48) Cc1ccc(C(C)C)c(OCC(=O)N/N=C2\CC(=O)CC(C)(C)C2)c1
→ -8	-0.3	-3.2	2	1.7%	1
(49) CC(C)C(OC(=O)c1cccs1)C(=O)NCCc1ccccc1 (configuration not stated)
→ -5	1.0	-3.9	-3	1.8%	24
(50) COc1ccccc1CCC(=O)NNC(=O)c1ccccc1
→ 0	1.0	-2.4	2	-0.6%	-19

The listing continues:
Results follow in this order: D2 potentiator	TRPML1 agonist	D2 agonist	Six1-Eya2 blk	PINK1 expr mod	TRPML1 inh
(51) CN1CCN(S(=O)(=O)c2csc(C(N)=O)c2)CC1
→ -6	0.3	1.5	5	1.3%	3
(52) CSc1ccccc1NC(=O)c1cccs1
→ 0	0.4	2.9	12	0.5%	-10
(53) COc1cccc(N2CCN(CC(=O)Nc3ccccc3C(=O)NCCc3ccccc3)CC2)c1
→ 7	0.3	-2.2	-12	0.8%	19
(54) Cc1ccc(-c2nc3scc(CCNS(=O)(=O)c4ccc(C)c(C)c4)n3n2)cc1
→ nt	5.2	nt	nt	4.0%	-4
(55) O=C(Nc1ccc(S(=O)(=O)N2C[C@@H]3C[C@@H](C2)c2cccc(=O)n2C3)cc1)c1ccc(F)cc1
→ -22	0.6	3.1	-1	3.0%	8
(56) COc1ccc(-c2csc(NC(=O)C3COc4ccccc4O3)n2)cc1OC (configuration not stated)
→ 19	1.7	8.8	-6	1.3%	-3
(57) Cc1ccc(C(C(=O)NCc2ccccc2)N(C(=O)c2csnn2)c2cccc3ccccc23)o1 (configuration not stated)
→ 17	-0.3	-1.9	-7	-2.3%	-14
(58) CC1CC1C(=O)OCC(=O)NNC(=O)COc1ccc(Br)cc1 (configuration not stated)
→ 20	-0.3	-1.6	-10	-0.2%	-11
(59) CCOC(=O)c1cccc(NC(=O)Nc2ccc3c(c2)N(C)C(=O)c2ccccc2S3)c1
→ nt	1.7	nt	nt	2.8%	6
(60) O=C(C1CCN(S(=O)(=O)c2ccccc2)CC1)N1CCCCCC1
→ 4	0.0	-2.2	3	-0.4%	-13
(61) Cc1c(C(=O)NCCSCc2ccco2)cccc1[N+](=O)[O-]
→ -15	0.8	-5.8	-6	-0.3%	-10
